High-throughput results from PubChem BioAssay.
BasE inh: inhibitors of Acinetobacter baumannii siderophore enzyme BasE; 84,000 compounds, 0.1% hits; inhibition, % (no concentration beside the values); purified BasE, fluorescence polarization binding displacement;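 active = both replicates above 25% with normal brightness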;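 note: 0% = negative plate control signal and 100% = positive plate control signal; stock transfer was 100 nL into about 30 µL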
KSHV LANA nucl: LANA-nucleosome interaction inhibition | FITC-LANA1-23 / chicken nucleosome fluorescence polarization; hits give low values | AID 720717 | z-score (no concentration beside the values) | 51,000 compounds, 0.3% hits;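 active = both repeat wells score below -2 in polarization z-score versus plate sample wells, excluding overly bright wells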;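 note: 100 nL library stock added to about 30 µL; numbers are from one replicate; some results filed as inactive read as strong as hits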
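Assay system: purified chicken nucleosomes with FITC-labelled LANA N-terminal peptide (1-23) / Probe or stimulus: 50 nM FITC-LANA1-23 probe / Compound dosing: pin-transferred compound, 100 nL / Times: compound with peptide–nucleosome mix 10–45 min at room temperature / Technique: fluorescence polarization, 480 nm excitation, 535 nm parallel and perpendicular emission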
Active calls of the source: *; . = no result given; & = joins results of further samples. An excerpt. The share of hits here may be higher or lower than overall.

SMILES | BasE inh | KSHV LANA nucl
CC(c1ccccc1F)n1cc(C(=O)NCC2CCCO2)nn1 (stereo unspecified) | -1.1 | -0.77
CC1Cc2ccccc2N1S(C)(=O)=O (stereo unspecified) | 2.4 | -2.1
CCOC(=O)c1nnn2c1nc(N(CC)CC)c1ccccc12 | -2.6 | .
CC1(C)NC(C)(C)c2nonc2/C1=N\O | 0.7 | -0.51
CC(C)NC(=O)C1CCCN(S(=O)(=O)c2ccc(-n3cnnn3)cc2)C1 (stereo unspecified) | 3.7 | -0.016
Nc1nc2c(s1)CCc1nonc1-2 | 1.2 | .
CCS(=O)(=O)N1Cc2ccccc2CC1C(=O)NC1=NCCS1 (stereo unspecified) | -1.2 | .
CN(C(=O)CSc1ncc(-c2ccccc2)n1C)C1(C#N)CCCCC1 | -0.5 | .

SMILES | BasE inh | KSHV LANA nucl
CCc1ccc(NC(=O)CN(C)S(=O)(=O)c2cccc3cccnc23)cc1 | -0.8 | 0.92
CCN(c1ccccc1)S(=O)(=O)c1ccc(CN2C(=O)c3cccnc3C2=O)cc1 | -0.7 | 0.2
CCCCc1ccc(S(=O)(=O)NNC(=S)NCc2ccco2)cc1 | 1.7 | 2
COC(=O)C(NC=O)C(O)(Cc1ccccc1)C(F)(F)F (stereo unspecified) | 1.8 | .
CC1CCN(C(=O)CCCN2C(=O)C(c3ccccc3)Oc3cccnc32)CC1 (stereo unspecified) | -1.4 | 0.7
CC1CCN(C(=O)C2CCN(S(=O)(=O)c3cnc[nH]3)CC2)CC1 | 1.0 | -0.47
CC(C(=O)NCCCN1CCOCC1)N1c2cccc3cccc(c23)S1(=O)=O (stereo unspecified) | -0.5 | 0.11
CN(Cc1ccccc1)C1CCN(Cc2ccncc2)CC1 | -3.1 | 1.3

SMILES | BasE inh | KSHV LANA nucl
Cc1cc(N2C(=O)CS/C2=C(/C#N)C(=O)C(C)(C)C)ccc1Cl | -2.1 | .
Cc1ccc(Cl)cc1N1CCN(C(=O)C2CCCN2c2nnc(N3CCCC3=O)s2)CC1 (stereo unspecified) | 0.3 | 0.64
N#Cc1cccc(NCCN2CCNC2=O)n1 | 1.5 | .
COC(=O)C(C)N1C(=O)S/C(=C/c2ccc(C)o2)C1=O (stereo unspecified) | -47 | 6.7
CCCNC(=O)N1CCN(Cc2ccc(F)cc2Cl)CC1 | 0.9 | 0.1
C[C@]12C=CC(=O)C=C1CC[C@H]1[C@@H]3C[C@@H](O)[C@](O)(C(=O)CO)[C@@]3(C)C[C@H](O)[C@@]12F | -3.9 | -1&-0.3
COc1cc2c3nc4n(c(=O)c3n(C)c2cc1OC)CCS4 | -1.0 | 0.26
Cc1oc(-n2cccc2)c(C#N)c1C(=O)NCc1ccc(Cl)cc1 | 1.7 | .

SMILES | BasE inh | KSHV LANA nucl
CCOc1cc(S(=O)(=O)n2cccn2)ccc1F | -2.5 | 2
CCOc1ccccc1CNC(=O)CC(C(=O)N1CCc2ccccc21)n1ccnc1 (stereo unspecified) | 3.8 | -0.69
O=C(O)CSCC(=O)Nc1nc(-c2cccs2)cs1 | 0.2 | .
CN1c2ccccc2C(=O)NC1c1cccc(C(F)(F)F)c1 (stereo unspecified) | -3.7 | .
c1ccc2c(NCC3CCCO3)nc(N3CCCCC3)nc2c1 (stereo unspecified) | -5.5 | 2
O=C(NC(=S)Nc1ccc(N2CCCCC2)cc1)c1ccccc1 | -3.0 | .
Cc1cccc(N=c2scc(-c3ccco3)n2/N=C/c2c[nH]c3ccccc23)c1C | -0.1 | .
COC(=O)c1ccc(CSc2nc(-c3ccco3)cc(C(F)(F)F)n2)o1 | -2.8 | 0.62

SMILES | BasE inh | KSHV LANA nucl
CCN1CCN(Cc2ccc(-c3ccccc3)cc2)CC1 | -1.8 | -0.33
Cc1cccc(NC(=O)c2ccc(S(=O)(=O)N(C)C)cc2)n1 | -1.6 | .
O=S(=O)(NCc1csc(-c2cccnc2)n1)c1ccc(Cl)s1 | -2.4 | -0.37
CCOc1ccccc1NC(=O)[C@@H]1CCCN1S(=O)(=O)c1ccccc1C(F)(F)F | -1.3 | .
O=c1c(-c2ccccc2)coc2cc(O)ccc12 | 0.5 | .
Cn1c(=O)c2c(nc(CN3CCN(c4cccc(Cl)c4)CC3)n2CCCO)n(C)c1=O | -0.4 | -0.45
Cc1cc(C)cc(NC(=O)N2CCC3(CC2)OCCO3)c1 | 0.6 | 0.48
O=C(c1ccc(OCCN2CCCCC2)cc1)c1c(-c2ccc(O)cc2)sc2cc(O)ccc12 | -0.8 | 0.041&0.1&-0.33

SMILES | BasE inh | KSHV LANA nucl
Nc1nnn2c(=O)c3cccc4cccc(c43)c12 | 3.1 | -0.2
CC(CNC(=O)CCc1nnc2ccc(NCCCN3CCCC3=O)nn12)c1ccccc1 (stereo unspecified) | -4.0 | 0.024
CN(Cc1nc2ccccc2c(=O)[nH]1)C(=O)CCC(=O)N1CCOCC1 | 2.7 | .
CCN1C(=O)C2C(c3ccccc3C)NC(Cc3ccc(O)cc3)(C(=O)OC)C2C1=O (stereo unspecified) | -2.3 | 0.84
O=C(NCc1ccc(Cl)cc1)C1c2ccccc2Oc2ccccc21 | -3.2 | .
O=C1C=CC(=O)C(c2ccc(Br)cc2)=C1 | -0.7 | .
O=C(ON(Cc1c(F)cccc1Cl)Cc1c(F)cccc1Cl)c1ccc(Cl)cc1 | . | 2.4
O=C(Nc1ccc2c(c1)OCCO2)Nc1nnc(N2CCCC2)s1 | 2.3 | 0.2

SMILES | BasE inh | KSHV LANA nucl
O=C(O)CCC(=O)/C=C/c1ccccc1 | . | 0.7
CCCn1c(C)cc(C(=O)COC(=O)c2nn(CCC)c(=O)c3ccccc23)c1C | -0.1 | .
COc1ccc(OC)c(N(C)S(=O)(=O)c2ccc3c(c2)N(C(C)=O)CCO3)c1 | -1.3 | 0.93
CCCn1c(N)c(C(=O)CN2CC(C)OC(C)C2)c(=O)[nH]c1=O (stereo unspecified) | -0.6 | .
CCOc1ccc(CCNC(=O)C2CCCN(C(=O)c3cc4sccc4n3CC)C2)cc1OCC (stereo unspecified) | -0.1 | 0.73
COc1cccc(N/C=C(\C#N)c2ccc(Cl)cc2)c1 | . | -0.15
O=C(CSc1nnc2scc(-c3ccccc3)n12)c1ccc2c(c1)OCCO2 | -0.4 | 0.19
O=C(NC1CC1)C1C2C=CC3(O2)C1C(=O)N(Cc1ccccc1)C3C(=O)NC1CCCC1 (stereo unspecified) | 2.2 | -0.86

SMILES | BasE inh | KSHV LANA nucl
CCOC(=O)c1[nH]c(C)c(C)c1O | 1.8 | 0.48
O=C(Cn1nnc(-c2ccc(F)cc2)n1)NC(=O)NC1CCCCC1 | 0.4 | .
O=C1COc2ccc(-c3csc(-n4nccc4C(F)(F)F)n3)cc2N1 | 0.8 | .
O=C(O)C1C2C=CC(CC2)C1C(=O)NCCc1ccccc1 (stereo unspecified) | 1.7 | -1.3
CC(Sc1ncn(-c2ccccc2)n1)C(=O)Nc1nccs1 (stereo unspecified) | -1.5 | -0.028
Cc1nnc(SCC(=O)N(C)CC(=O)Nc2ccc(F)cc2)n1Cc1ccccc1 | 1.3 | .
CN(C)C(=O)COC(=O)c1cccc(S(=O)(=O)N2CCN(c3ccccc3)CC2)c1 | 1.6 | .
CC(C)OC(=O)c1cccc(NC(=O)c2ccc(Br)cc2)c1 | -0.2 | .

SMILES | BasE inh | KSHV LANA nucl
CCc1ccc(C2C3=C(Nc4c2c(=O)n(C)c(=O)n4C)c2ccccc2C3=O)cc1 (stereo unspecified) | 2.1 | -1.4
O=C1OC(c2ccco2)=N/C1=C1/C=C(c2cccs2)Oc2ccccc21 | 1.8 | -0.092
O=C(O)CCCN1C(=O)C(O)=C(C(=O)/C=C/c2ccccc2)C1c1ccccc1 (stereo unspecified) | 0.8 | 0.46
Cc1ccc(NC(=O)CN2Cc3ccccc3C2=O)cc1 | -1.2 | -0.37
COCCN1Cc2cccc(C(=O)Nc3ccc(C(C)C)cc3)c2C1=O | 0.3 | -0.16
CCC1Oc2nc(SC)nnc2-c2ccccc2N1C(=O)c1ccccc1 (stereo unspecified) | 1.1 | 0.35
Cc1oc2ccc(OCc3ccc(Cl)cc3)cc2c1C(=O)O | -13 | 0.98
O=C(c1ccco1)N1CCN(C(=O)C2CCCc3c2[nH]c2ccc(Cl)cc32)CC1 (stereo unspecified) | -0.3 | .

SMILES | BasE inh | KSHV LANA nucl
O=C(N/C(=C\c1ccc(O)cc1)C(=O)N1CCCCC1)c1ccccc1 | -2.5 | -0.16
NCCCN1Cc2ccccc2C1 | 1.5 | 0.41
CCOc1ccc(NC(=O)c2ccc(-n3cnnc3)cc2)cc1 | -1.7 | 0.078
O=S(=O)(c1ccccc1)N1CCN(C(=S)NCc2ccccc2)CC1 | 0.8 | .
Cn1c2ccccc2c2cnn(CC(=O)NC3CCCC3)c(=O)c21 | 0.9 | 0.38
OC1(c2ccccc2)CN(c2ccccc2)C2=[N+]1CCCC2 (stereo unspecified) | 0.7 | -0.83
CC(C)(C)C(=O)/C(C#N)=C/Nc1cccc2nsnc12 | 3.0 | -1.1
CC(=O)Nc1ccc(N2CCN(C(C)=O)CC2)cc1 | 0.7 | 0.88

SMILES | BasE inh | KSHV LANA nucl
Cc1cnc(NC(=O)C2CCCC2)s1 | 1.3 | .
COCCCn1nnnc1SCC(=O)Nc1ccccc1 | 5.5 | 0.4
COc1ccc(N2CCN(CCCNC(=O)/C=C3\Sc4ccccc4NC3=O)CC2)cc1 | 3.2 | 0.19
CC(C)(C)c1cn2ccc3ccccc3c2n1 | -1.8 | -1.4
O=c1[nH]c(=S)sc2ccccc12 | 1.9 | -0.071
CCOC(=O)c1cc2ccc(OC(=O)c3ccco3)cc2oc1=O | 0.9 | -0.68
CCC(CC)NCc1oc2ccc(Cl)cc2c1-c1ccc(OC)cc1 | 0.7 | .
COc1cc2cc(OCc3c(F)cccc3Cl)nc(C)c2cc1OC | 2.0 | .

SMILES | BasE inh | KSHV LANA nucl
O=C(CCN1C(=O)C2C3C=CC(C3)C2C1=O)Nc1cccnc1 (stereo unspecified) | 2.3 | -0.11
OC(CNCc1ccccc1)C12CC3CC(CC(C3)C1)C2 (stereo unspecified) | -0.7 | .
COC(=O)c1sc(NC(=O)Cn2cnc3sccc3c2=O)c(C(=O)OC)c1C | 0.7 | .
Cc1nc2c(C(=O)N(C)Cc3ccco3)c[nH]n2c(=O)c1Cc1ccccc1F | -3.5 | 2.4
CCOc1ccccc1CNC(=O)Cn1ncc2c([nH]c3ccccc32)c1=O | 1.1 | 1
CC(NCc1ccccc1)C(=O)Nc1ccccc1 (stereo unspecified) | 1.4 | .
Cc1ccc(-c2nnc(Nc3ccc(O)cc3)c3ccccc23)cc1S(=O)(=O)N(C)C | 2.4 | .
N#CC(C#N)=C1CCN(c2ncc(C(F)(F)F)cc2Cl)CC1 | . | 1.2

SMILES | BasE inh | KSHV LANA nucl
COC(=O)c1ccc(-c2ccco2)n1CC(=O)N1CCC(C(N)=O)CC1 | -0.2 | 0.62
Cc1cccc2c1cnn2C(=O)Nc1cc(F)ccc1F | -0.1 | 0.77
CC1(C)CC2CC(C)(CN2c2nc(N)c(C#N)c(CC#N)c2C#N)C1 (stereo unspecified) | -2.5 | .
CCOC(=O)c1cnc(-c2ccccc2)[nH]c1=O | -0.4 | -0.066
O/N=C/c1ccccc1C(F)(F)F | -0.7 | .
CNC(=O)CN1CCCC(c2nc3ccccc3[nH]2)C1 (stereo unspecified) | -1.0 | 0.89
O=c1ncn(Cc2cccs2)cc1-c1ccccc1 | 2.3 | .
C=CCSc1nccc(-c2sc3ccc(Cl)cc3c2C)n1 | 2.2 | .

SMILES | BasE inh | KSHV LANA nucl
COc1ccc(NC(=O)c2ccccc2C(=O)N2CCCCC2)cc1 | 0.5 | 0.38
Cc1cccc(C)c1OCCCn1ccnc1 | 2.4 | -0.63
O=C1S/C(=C\c2ccc(N3CCOCC3)o2)C(=O)N1c1ccccc1 | -58 | .
NC(=O)c1ccc(-n2ccnc2)cc1 | . | 0.24
O=C(NN1CC(=O)N(CCc2ccccc2)C1=O)c1cccnc1 | 1.2 | 0.23
O=C(NCC1COc2ccccc2O1)c1ccc(Cl)cc1 (stereo unspecified) | 4.1 | .
CN[C@H](CC(=O)O)C(=O)O | -2.4 | 1.3
CC12CCC3(C)OCC(COC(=O)NS(=O)(=O)c4ccccc4)(CO1)N23 (stereo unspecified) | -2.0 | -0.13

SMILES | BasE inh | KSHV LANA nucl
CCOc1ccc(NC(=O)c2ccc(SC)cc2OC)cc1 | -0.8 | -0.55
CN(C)S(=O)(=O)c1ccc(C(=O)NCc2n[nH]c(=O)c3ccccc23)cc1 | 1.2 | -0.096
Cc1cc(C(=O)COC(=O)c2cc(S(C)(=O)=O)ccc2Cl)c(C)n1C | -0.7 | .
CCN(CC(=O)Nc1ccccc1)c1ccccc1 | 1.5 | -0.96
O=C1NC(C(=O)O)Cc2ccccc21 (stereo unspecified) | -1.3 | .
CC1CN(C2=NCCN2S(=O)(=O)c2cc(C(F)(F)F)cc(C(F)(F)F)c2)CC(C)O1 (stereo unspecified) | 2.3 | .
